Bioassay records from PubChem.
BJeLR lethal = BJeLR cell viability loss. BJeLR (HRASV12) viability, CellTiter-Glo ATP luminescence, 48 h; reference of the scale not given here. AID 1554. inhibition, % (concentration not given with the values). 300,000 compounds, 0.17% hits;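 active means replicate mean above 50%; inconclusive means above 50% but judged a plate artefact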;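 further: 50 nL library stock added to about 25 µL; numbers are from one replicate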
ugtP null kill = growth inhibition of S. aureus ugtP deletion strain; S. aureus RN4220 ugtP deletion, OD600 growth, 16 h; some inactives read as strong as hits; growth inhibition, % (test concentration not listed); 330,000 compounds, 0.54% hits; AID 1259309;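 active means z-score under -3 and OD600 up to 0.15 on both plates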;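 further: plate controls were untreated wells for no effect and antibiotic for full effect; wells of about 80 µL received 100 nL stock; the first replicate is given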
Bead autofluor = compound fluorescence in toxin protease inhibitor counterscreen | compound autofluorescence counterscreen, microsphere flow cytometry; hits give high values | fluorescence intensity (concentration not given with the values) | 360,000 compounds, 3.1% hits;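 active means at least 3 SD above the mean of all compounds, about 16000 in these data; inconclusive means too few beads counted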;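 further: 100 nL of 1 mM stock went into each well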
PrP 5UTR inh = suppresses PrP 5' UTR mRNA reporter expression | cell-based PrP 5' UTR mRNA reporter, plate reader | inhibition, % (test concentration not listed) | 340,000 compounds, 0.35% hits;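 active means every replicate at 50% or more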;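 further: 0 = median of the neutral control wells; tested in H4 reporter cells; numbers are from one replicate; inactives centre near -14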
Mtb hypoxia inh = inhibitors of hypoxia-regulated fluorescent reporter in Mycobacterium tuberculosis; M. tuberculosis hypoxia-regulated fluorescent reporter, fluorescence; fluorescence inhibition, % (test concentration not listed); AID 1159583; 300,000 compounds, 0.1% hits;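 active means 35 to 45% if threefold the growth effect, above 45% if 1.5-fold the growth effect; inactive means the rest, general growth blockers included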;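 further: wells of about 50 µL received 100 nL stock; 0% = vehicle wells and 100% = reference inhibitor wells; whole bacteria with a GFP reporter of the hypoxia response; strong numbers were not always called active; many hits fall short of the cut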
RN4220 kill = kills Staphylococcus aureus RN4220 | AID 1259311 | 330,000 compounds, 0.33% hits | inhibition, % (test concentration not listed) | S. aureus RN4220 growth, OD600, 16 h;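 active means z-score of -3 or lower and OD600 up to 0.18 on both plates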;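 further: plate controls were untreated cells for no effect and reference antibiotic for full effect; stock transfer was 100 nL into about 80 µL; one replicate is shown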
Mtb hypoxia inh growth = second read-out of Mtb hypoxia inh, no call of its own (marks repeat the call); growth inhibition, %; measured here: M. tuberculosis growth (absorbance);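 0% = vehicle and 100% = reference antibiotic; read after six days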
* marks the source's active call; other numbers are inactive results; ? = inconclusive; · = not tested or not shown.

SMILES | BJeLR lethal | ugtP null kill | Bead autofluor | PrP 5UTR inh | Mtb hypoxia inh | Mtb hypoxia inh growth | RN4220 kill
O=C(C1CCCN(Cc2ccccc2)C1)N1CCCCC1 (configuration not stated) | -10.2 | 4.7 | 3144 | -18.5 | · | · | 2.0
CC(C)c1ccc(C2N3CC4([N+](=O)[O-])CN2CC([N+](=O)[O-])(C3)C4(C)C)cc1 (configuration not stated) | -1.0 | 5.0 | 2390 | -6.3 | -9.5 | 0.4 | 6.1
COc1ccc(C2(CNC(=O)CCC(=O)O)CCCC2)cc1OC | -0.1 | 10.6 | 15077 | -12.4 | 0.1 | 3.4 | 5.0
CC(C)CNC(=O)c1ccc(Cl)c(N)c1 | -5.9 | 1.5 | · | · | 12.9 | 12.9 | 3.3
O=Cc1ccccc1-c1cn(CCCOCc2ccccc2)nn1 | -2.7 | 5.5 | 4108 | -10.8 | -7.0 | 4.5 | 10.1
CC(C)(C)c1cccc(Oc2nn[nH]n2)c1 | 0.8 | -2.3 | 7873 | · | 8.1 | 3.2 | 1.5
O=C(Nc1ccc2ccccc2c1)/C(=C/c1cccc(Br)c1)NC(=O)c1ccco1 | -7.0 | -9.2 | 2328 | -16.5 | 1.0 | -5.1 | 0.4
Cc1cc(=O)n2nc(N3CCCC(C(=O)NCCc4ccc(Cl)cc4)C3)sc2n1 (configuration not stated) | -7.4 | 4.2 | 5294 | -1.8 | -0.3 | -2.6 | 2.5
Cc1ccc(S(=O)(=O)N2CC3(C)CN(S(=O)(=O)c4ccc(C)cc4)CC(C)(C2)C3=O)cc1 | -5.3 | -7.8 | 22149* | -18.8 | -7.0 | 4.6 | -3.6
Cc1cc(C)cc(OCC(=O)Nc2ccc3c(c2)C(=O)c2ccccc2C3=O)c1 | 0.8 | 20.3 | 2640 | -33.4 | -2.3 | -8.3 | 4.4
COc1cc(C(=O)OCC(=O)NC2CCCCC2)cc2c1OCCO2 | · | -3.3 | 3889 | -25.5 | 2.0 | 9.5 | 0.0
CC1(C)CC2CC(C)(CN2CC(O)COc2ccccc2)C1 (configuration not stated) | 6.1 | 5.1 | 3295 | -4.8 | 8.4 | 0.7 | 3.9
COc1cccc(Oc2ccc(C(F)(F)F)cc2NC(=O)C2=COCCO2)c1 | 1.0 | 3.9 | 4050 | -11.2 | 9.3 | -2.9 | -6.4
COc1cc(/C=N/Nc2nc3ccccc3[nH]2)ccc1O | 4.2 | · | 2065 | -15.9 | · | · | ·
C[C@@H]1C2CC(C/C2=N\NC(=O)c2ccncc2)C1(C)C (some centres not stated) | -6.6 | · | 4977 | -28.2 | · | · | ·
Oc1ccc(Nc2nc(-c3ccccc3O)nc3ccccc23)cc1 | 2.1 | 6.5 | 3951 | -17.2 | -6.8 | 1.1 | 0.5
COc1ccccc1Oc1ccc(NC=CC(=O)C(C)(C)C)cc1 | · | -2.9 | · | · | -1.3 | 10.1 | 6.2
O=C(C1c2ccccc2Oc2ccccc21)N1CCN(c2ccc(Cl)cc2)CC1 | · | -4.9 | 4524 | -33.2 | · | · | -3.8
CC(NC(=O)NNC(N)=S)(C(F)(F)F)C(F)(F)F | 12.5 | 20.7 | 3473 | -11.7 | -4.9 | -6.4 | 2.3
CCOc1ccc(OCC(=O)NCCS(=O)(=O)N2CCN(c3ccc(F)cc3)CC2)cc1 | -3.1 | 3.5 | 5692 | 0.3 | 4.4 | 4.8 | 0.8
O=C(NCCN1CCOCC1)c1cc(-c2ccccc2Cl)on1 | -10.4 | 1.4 | 3742 | -26.8 | 3.4 | 6.1 | 0.7
Cc1ccsc1C=Nn1c(-c2ccccn2)n[nH]c1=S | · | -0.3 | · | · | 0.5 | 12.0 | 5.4
NC(=O)CSc1nnc(COc2ccccc2)n1CCc1ccccc1 | 2.3 | 5.3 | 7996 | -8.6 | 8.6 | 5.6 | 7.4
COc1ccc(NC(=O)CN(C)C(=O)c2ccc3c(c2)S(=O)(=O)N=C2CCCCCN23)cc1 | 1.0 | 0.3 | 5909 | -4.9 | 18.1 | 7.3 | 1.3
CCNC(=S)N(CCc1c(C)[nH]c2ccccc12)Cc1cc(OC)c(OC)c(OC)c1 | 1.9 | 10.0 | 4351 | -23.2 | 5.1 | 4.7 | 5.4
CC(Sc1ccc2c(c1)OCCO2)C(=O)Nc1ccc(N2CCOCC2)cc1 (configuration not stated) | 0.7 | 3.5 | 4475 | -35.3 | 2.3 | -6.4 | 1.2
ON(CCc1ccccn1)Cc1ccccc1 | · | 1.2 | 3532 | -14.8 | 3.8 | 9.8 | 4.0
CN(C)c1ccc(/C=C2\SC(=O)N(CCc3nnc(N)s3)C2=O)cc1 | 1.4 | 2.6 | 4012 | 55.6* | 12.9 | 0.7 | 6.4
O=C(NC(=S)NCCN1CCOCC1)c1ccc(F)cc1 | 4.5 | 7.0 | 2344 | -5.3 | 10.2 | 3.5 | 5.4
CC(C)(C)c1cc(C(=O)N/N=C/c2ccco2)n[nH]1 | 2.4 | · | 8049 | -48.8 | · | · | ·
O=C(NC1CC2CCCC(C1)N2)c1ccccc1 (configuration not stated) | 0.6 | 7.0 | 3540 | -17.0 | 14.5 | 10.0 | 1.9
C=CCSC1=NC(=Cc2ccsc2)C(=O)S1 | · | 7.8 | · | · | 14.2 | 9.7 | 12.1
O=[N+]([O-])c1ccc(S(=O)(=O)NN=Cc2cccs2)cc1 | · | 1.4 | · | · | -9.1 | 6.2 | 5.3
NNC(=O)c1nc(-c2ccccc2)n2c1CCCCC2 | -1.8 | 8.7 | 20671* | -11.0 | 6.1 | 3.7 | -2.0
CC1(C)CC(=O)C2=C(C1)N(CC1CCCO1)C(=O)C2(O)C(F)(F)F (configuration not stated) | -8.4 | -5.8 | 5716 | -23.2 | 2.1 | 12.3 | 4.1
COc1ccc(OCC(=O)N2CCN(c3cccc(C(F)(F)F)c3)CC2)cc1 | -5.9 | -5.9 | 6560 | 4.8 | 4.1 | 2.2 | 1.9
Cc1ccccc1NC(=O)Cn1nnc(S(=O)(=O)c2ccc(C(C)(C)C)cc2)c1N | 0.6 | · | 6223 | -23.3 | · | · | ·
Cc1ccc(-c2cc(C(F)F)n3ncc(C(=O)Nc4ccc(S(=O)(=O)Nc5ccccc5C)cc4)c3n2)cc1 | 11.3 | -7.4 | 3522 | -9.1 | · | · | -2.9
COc1ccc2c(COC(=O)c3ccc(C)c(S(=O)(=O)N4CCOCC4)c3)cc(=O)oc2c1 | · | -2.4 | ? | 2.7 | 0.9 | -2.2 | 9.5
COc1ccc(S(=O)(=O)NC(CC(=O)NCCc2ccc(OC)c(OC)c2)C(C)C)cc1 (configuration not stated) | -3.5 | 0.8 | 4623 | -6.8 | 5.3 | 1.5 | 7.1

Copied from the list.
C=CCSC1=NC(=Cc2ccsc2)C(=O)S1 @ ugtP null kill: 7.8
NNC(=O)c1nc(-c2ccccc2)n2c1CCCCC2 @ PrP 5UTR inh: -11.0
COc1ccc(OCC(=O)N2CCN(c3cccc(C(F)(F)F)c3)CC2)cc1 @ Bead autofluor: 6560
COc1ccc(S(=O)(=O)NC(CC(=O)NCCc2ccc(OC)c(OC)c2)C(C)C)cc1 (configuration not stated) @ Mtb hypoxia inh: 5.3

The listing picks up, starting 2 compounds before the break.
SMILES | BJeLR lethal | ugtP null kill | Bead autofluor | PrP 5UTR inh | Mtb hypoxia inh | Mtb hypoxia inh growth | RN4220 kill
COc1ccc2c(COC(=O)c3ccc(C)c(S(=O)(=O)N4CCOCC4)c3)cc(=O)oc2c1 | · | -2.4 | ? | 2.7 | 0.9 | -2.2 | 9.5
COc1ccc(S(=O)(=O)NC(CC(=O)NCCc2ccc(OC)c(OC)c2)C(C)C)cc1 (configuration not stated) | -3.5 | 0.8 | 4623 | -6.8 | 5.3 | 1.5 | 7.1
COCCNC(=O)C(=O)Nc1ccc2c(c1)N(S(=O)(=O)c1cccs1)CCC2 | 19.3 | -14.0 | 6523 | -42.1 | 3.5 | -1.0 | 6.8
Cc1cc(C)n(-c2ccc(C(=O)N3CCC(CO)(Cc4ccccc4)CC3)cc2)n1 | -0.6 | 4.4 | 4180 | -21.9 | 6.9 | 13.3 | 0.8
CCOC(=O)N1CCN(c2c(NCc3ccc(N(C)C)cc3)c(=O)c2=O)CC1 | -0.1 | 5.8 | 4362 | 0.5 | 1.3 | 3.7 | 3.5
O=C(NNC(=O)c1ccccc1-n1cccc1)c1ccc(Cl)c(Cl)c1 | -8.5 | -2.4 | 4346 | -3.5 | · | · | 5.2
COc1ccccc1C=NNC(=O)c1cccc(NC(=O)c2ccccc2C)c1 | · | 3.7 | · | · | 17.9 | 3.1 | 0.7
Cc1ccc(S(=O)(=O)N2c3ccccc3NC(=O)CC2C)cc1 (configuration not stated) | -1.9 | 11.3 | 3321 | -4.8 | 17.1 | 5.5 | 5.5
CN(Cc1ccccc1)C(=O)CN1C(=O)c2ccccc2S1(=O)=O | -0.2 | 1.6 | 3306 | -23.6 | 2.5 | -3.3 | 1.7
CC(=NNC(=O)CCc1c[nH]c2ccccc12)c1ccc([N+](=O)[O-])cc1 | · | -14.5 | · | · | 0.1 | 5.2 | 5.4
CCOc1ccc(NC(=S)Nc2ccc(F)cc2)cc1 | -13.3 | 3.0 | 3661 | -15.3 | · | · | 2.4
Cc1ccc(S(=O)(=O)N/N=C/c2cc(Br)c(C)o2)cc1 | -2.5 | · | 2553 | -23.6 | · | · | ·
CCC1(CC(C)C)SC(N)=NC1=O (configuration not stated) | · | 3.0 | 3619 | -5.0 | 8.1 | 12.1 | 2.4
Cn1cccc1C(=O)NC(=O)COC(=O)c1cc(S(=O)(=O)N2CCCCC2)ccc1Cl | -3.0 | -1.1 | 3547 | -2.6 | 4.7 | 0.0 | 3.2
O=C(Nc1sc2c(c1C(=O)O)CCCC2)c1ccc(Cl)cc1 | 6.3 | · | 3962 | -11.8 | · | · | ·
COc1cccc(-c2cc3onc(-c4ccccc4)c3c(=O)n2C)c1 | · | -17.4 | 4042 | -1.9 | 11.9 | 11.2 | 1.5
COc1ccc(S(=O)(=O)N2CCCOC2CNC(=O)C(=O)NCCCN2CCOCC2)cc1C (configuration not stated) | 7.5 | 2.9 | 6783 | -21.1 | 3.8 | -22.6 | 1.3
CCNC1=C(Cl)C(=O)c2ccccc2C1=O | -3.6 | 80.0 | 3033 | -18.5 | -5.7 | 8.9 | 71.3
COC(=O)NN=Cc1cn(CCCOc2ccc(C)cc2)c2ccccc12 | · | -10.3 | · | · | 8.5 | 6.1 | -2.5
Cc1cc(OCC(=O)OCC(=O)NCC2CCCO2)ccc1Cl (configuration not stated) | · | -4.1 | 5358 | -10.5 | -12.1 | 1.9 | -3.4
Cc1ccc(C(=O)NCc2nc3ccccc3[nH]2)o1 | -4.5 | -1.1 | 5889 | -26.9 | 2.6 | -0.1 | 0.3
O=C(NC(Nc1ncc(S(=O)(=O)c2ccc([N+](=O)[O-])cc2)s1)(C(F)(F)F)C(F)(F)F)c1ccc(Cl)cc1 | 70.3* | · | 3998 | -12.2 | · | · | ·
Cc1ccc(C)c(CN2CCC(n3nccc3NC(=O)C3CCCC3)CC2)c1 | 2.2 | 2.2 | 5111 | -10.0 | 7.4 | 2.4 | -1.1
O=S(=O)(c1ccc(NC(=S)NCc2cccnc2)cc1)N1CCCCC1 | 62.3* | 3.6 | 4082 | 0.7 | 3.0 | 3.5 | 3.9
O=C(NN=C/C=C\c1ccccc1[N+](=O)[O-])c1ccccn1 | · | 4.1 | · | · | -6.8 | -4.2 | -0.4
O=C1c2ccccc2C(=O)N1CC#CCN1CCN(C(c2ccccc2)c2ccccc2)CC1 | -3.3 | 23.4 | 3051 | -9.3 | 2.2 | 2.8 | -14.0
COC(=O)c1cccc(NC(=O)CSc2nnc(COc3ccc(C#N)cc3)n2-c2ccccc2)c1 | 1.5 | 1.2 | 4324 | -24.6 | 5.9 | 6.2 | 1.2
COc1cc2nc(N(CCCN(C)C)C(=O)c3ccc(S(=O)(=O)N(C)C4CCCCC4)cc3)sc2cc1OC | -5.7 | 4.4 | 6336 | -12.5 | 13.9 | 3.9 | 2.5
O=C(O)CCCC(=O)Nc1c(F)c(F)c(F)c(F)c1F | 0.7 | -0.4 | 3433 | -11.0 | 1.1 | 4.5 | 3.7
S=C(NCCN1CCOCC1)NN=Cc1cccs1 | · | 3.0 | · | · | 19.1 | 6.6 | 1.5
CCOC(=O)CN(C(=O)CNC(=O)c1ccco1)C(C(=O)NC1CCCC1)c1ccccc1OCC (configuration not stated) | 3.2 | 1.5 | 4738 | -18.8 | · | · | 2.3
